Cruzain noTriton: qHTS Assay for Promiscuous and Specific Inhibitors of Cruzain (without detergent). Cruzipain (Trypanosoma cruzi), P25779. purified cruzain, Z-FR-AMC fluorescence, no detergent. Potency, µM, without a hit: max response, negative = inhibition, hits mostly inhibitors. 200,000 tested, 2.3% active; active = well fitted curve in the direction sought with a large enough effect; inconclusive = small, poorly fitted or top-dose-only effect, or another doubt; inactive = no such curve, though single readings can be large; an effect the other way counts as inactive or inconclusive;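 note: plate controls were enzyme without inhibitor for no effect and buffer without enzyme for full effect; nearly all actives have a fitted effect of over 40% in size; top concentration of the series not given in the record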
Target sequence (P25779 123-467 limits assumed): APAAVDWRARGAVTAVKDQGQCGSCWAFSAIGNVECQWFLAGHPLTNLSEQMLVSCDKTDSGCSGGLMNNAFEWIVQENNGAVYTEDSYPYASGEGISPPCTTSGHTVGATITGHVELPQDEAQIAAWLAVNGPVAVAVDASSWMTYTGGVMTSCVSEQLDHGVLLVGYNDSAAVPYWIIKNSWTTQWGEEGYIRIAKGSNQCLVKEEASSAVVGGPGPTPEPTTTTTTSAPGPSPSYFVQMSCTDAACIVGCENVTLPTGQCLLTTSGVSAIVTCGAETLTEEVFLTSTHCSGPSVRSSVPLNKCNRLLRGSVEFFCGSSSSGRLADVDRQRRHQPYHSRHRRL
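Detergent-free condition (0.00005% Triton X-100) in acetate buffer pH 5.5 with DTT. 1.5 nM enzyme and compound were pre-mixed 15 min, then 2 uM Z-FR-AMC substrate added; reaction progress from fluorescence change between first and third reads (60 s).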
Cruzain Triton: qHTS Assay for Promiscuous and Specific Inhibitors of Cruzain (with detergent). Cruzipain (Trypanosoma cruzi), P25779. purified cruzain, Z-FR-AMC fluorescence, 0.01% Triton. Potency, µM, for inactives: max response, negative = inhibition, actives largely listed as inhibitors. 200,000 tested, 0.43% active. AID 1478, 2009; active = well fitted curve in the direction sought with a large enough effect; inconclusive = small, poorly fitted or top-dose-only effect, or another doubt; inactive = no such curve, though single readings can be large; an effect the other way counts as inactive or inconclusive;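 note: plate controls were neutral wells for no effect and buffer without enzyme for full effect; nearly all actives have a fitted effect of over 40% in size; top concentration of the series not given in the record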
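Detergent-containing arm of a paired screen for aggregation-based inhibition: 0.01% Triton X-100 present. Cruzain at 1.5 nM cleaved 2 uM Z-FR-AMC at pH 5.5 with 5 mM DTT; AMC fluorescence gain over 60 s measured activity.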
MARV entry inh: qHTS for inhibitors of binding or entry into cells for Marburg Virus | Marburg virus pseudotyped entry inhibition, cell reporter; control for the full effect not named in the record; about a third of the inactives were read at about 46 µM | Potency, µM (titrated, usually from 37.8 µM), for inactives: top-dose activity change, negative = inhibition, most hits filed as inhibitors | 300,000 tested, 1.8% active | AID 540276, 2011; active = well fitted inhibition curve with a large enough effect; inconclusive = small, poorly fitted or top-dose-only effect, or effect the other way; inactive = flat fitted curve, though single readings scatter; tested in HEK293 cells; about a fifth of its hits are not listed in these tables; note: % is set by controls: 0 for no effect and ±100 for the full control effect; luciferase read-out
2A StopGo: High Throughput Screening for Foot and Mouth Disease Virus Antivirals. human cells with a luciferase reporter of 2A StopGo recoding; control for the full effect not named in the record. Potency, µM (doses to about 57.9 µM), for inactives: at the highest dose signal change, negative = less light. 410,000 tested, 1.2% active. AID 1159524, 2015; active = well fitted falling curve with a large enough effect; inconclusive = small, poorly fitted or top-dose-only effect; inactive = no such curve, though single readings can be large or run the other way; tested in HEK293T cells; note: % is set by controls: 0 for no effect and ±100 for the full control effect; nearly all actives have a fitted effect of over 45% in size; luciferase light after 4 h
Lassa entry inh: qHTS for Inhibitors of binding or entry into cells for Lassa Virus; Lassa virus pseudotype entry inhibition, cell reporter; control for the full effect not named in the record; Potency, µM (doses to about 37.9 µM), without a hit: at the highest dose activity change, negative = inhibition, hits mostly inhibitors; 300,000 tested, 1.2% active; active means well fitted inhibition curve with a large enough effect; inconclusive means small, poorly fitted or top-dose-only effect, or effect the other way; inactive means flat fitted curve, though single readings scatter; tested in HEK293 cells; note: % is set by controls: 0 for no effect and ±100 for the full control effect; nearly all actives have a fitted effect of over 50% in size; luciferase read-out
RE007 growth inh: qHTS Assay for Inhibitors of the HIV-1 protein Vpr. S. pombe RE007 Vpr strain, BacTiter-Glo ATP luminescence, 24 h; control for the full effect not named in the record. Potency, µM (doses to about 92.2 µM), for inactives: at the top dose activity change, negative = less growth. 360,000 tested, 0.21% active; active = well fitted falling curve with a large enough effect; inconclusive = small, poorly fitted or top-dose-only effect; inactive = no such curve, though single readings can be large or run the other way;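 note: % is set by controls: 0 for no effect and ±100 for the full control effect; nearly all actives have a fitted effect of over 50% in size; the assay follows cell death caused by Vpr and the record does not say whether a fall means rescue or toxicity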
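Fission yeast strain RE007, carrying one chromosomally integrated HIV-1 vpr copy, was seeded at OD 0.01 in PMG+AL medium with 23 nL pinned compound. After 24 h at 30 °C and 99% humidity, viability was read by BacTiter-Glo luminescence.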
NS1 inh: qHTS Assay for Inhibitors of Influenza NS1 Protein Function | 270,000 tested, 0.4% active | AID 2326, 2010 | S. cerevisiae slowed by influenza A NS1, growth recovery by OD600 | Potency, µM (doses to about 46.1 µM), without a hit: at the highest dose activity, positive = more growth; note: actives are rising curves; nearly all actives have a fitted effect of over 50% in size
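Recovery from NS1-induced slow growth read by OD600 in budding yeast switched to galactose assay medium (pH 6.0, -URA) at 1:100 dilution. Compound 23 nl per well; the matching strain lacking NS1 serves as control.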
SARS PLP yeast: qHTS of Yeast-based Assay for SARS-CoV PLP. 330,000 tested, 0.19% active. S. cerevisiae expressing SARS-CoV PLpro, growth rescue; control for the full effect not named in the record. Potency, µM (series often up to 32.9 µM), for the others: at the top dose activity, positive = growth rescue. AID 485353, 2010; note: 0% is about no effect; nearly all actives have a fitted effect of over 55% in size; growth read by luminescence after 48 h
An asterisk follows results filed as active; u = inconclusive; x = no result given; & = joins results of further samples; [ ] = remark or other dose. Unless noted, calls come from the whole dose curve; as a rule, active means well fitted rising curve with a large enough effect; inconclusive means small, poorly fitted or top-dose-only effect; inactive means no such curve, though single readings can be large or run the other way. Potency is the fitted concentration of half-maximal effect. Rows are unselected; overall some 4.7% were active at least once.

SMILES	Cruzain noTriton	Cruzain Triton	MARV entry inh	2A StopGo	Lassa entry inh	RE007 growth inh	NS1 inh	SARS PLP yeast
Cc1ccc(CS(=O)Cc2ccc(C(=O)N3CCN(C4CCCCC4)CC3)o2)cc1 (centres undefined)	x	x	x	-9%	x	-6%	2%	-11%
COc1ccccc1NC1(C#N)CCCCC1	x	x	10%	-29%	17%	15%	-1%	1%
CN1CCN(C(=S)NC(=O)/C=C/c2ccccc2Cl)CC1	x	x	4%[46.1 µM]	0%	21%	-6%	1%	1%
Cc1nc(-c2cccnc2)sc1C(=O)Nc1cccc(C(F)(F)F)c1	26%	-10%	-10%	-16%	13%	-33%	1%	-14%
CCOC(=O)CSc1nnc(-c2cc(OC)c(OC)c(OC)c2)o1	x	x	x	10%	x	20%	2%	0%
O=C(NC1CC2CCC1C2)C1CCN(S(=O)(=O)c2ccc(-c3nn[nH]n3)cc2)CC1 (centres undefined)	-4%	0.8%	14%	-9%	5%	-1%	10%	-7%
COc1cccc(CSc2nc3n(n2)C(c2cccc(F)c2)C(C(=O)Nc2ccccc2C)=C(C)N3)c1 (centres undefined)	4%	2.3%	x	-15%	39%[46.1 µM]	x	x	x
CC(C)CCn1nnnc1C(c1ccc(F)cc1)N1CCC(C(N)=O)CC1 (centres undefined)	7%	-0.3%	11%[46.1 µM]	40%[activator]	10%	5%	-9%	0%
Cn1cc(CN2CCCCC2C(=O)Nc2ccc(-n3cccn3)cc2)cn1 (centres undefined)	x	x	x	-13%	x	4%	-1%	-2%
COc1ccc(C(c2c(N)[nH]c(=S)[nH]c2=O)c2c(N)[nH]c(=S)[nH]c2=O)cc1	x	x	x	6%	x	5%	19%	2%
CC(=O)c1cccc(NC(=O)C2CCN(C(=O)c3ccc([N+](=O)[O-])cc3)CC2)c1	x	x	x	2%	x	5%	-3%	1%
Cc1cc(Cl)ccc1NC(=O)CCC(=O)N/N=C/c1cc([N+](=O)[O-])ccc1O	x	x	u	-4%	u	1%	x	0%
Cc1ccc(-c2nnc(Nc3ccc(C(N)=O)cc3)c3ccccc23)cc1S(=O)(=O)N1CCCCC1	-3%	-5.0%	x	-20%	u	x	x	x
COc1ccc(Br)cc1C(=O)Nc1ccccc1-c1ccccc1	-19%	2.1%	-12%	u	-16%	-5%	-12%	-2%
O=S(=O)(Nc1ccc(S(=O)(=O)N2CCCC2)cc1)c1ccccc1Br	x	x	-3%	60%[activator]	2%	6%	x	-16%
CC(=O)N1CCSc2ccc(S(=O)(=O)NCc3ccc(F)cc3)cc21	x	x	x	20%	x	16%	4%	-4%
O=[N+]([O-])c1cc(F)c(N2CCCC2)cc1Br	x	x	u	-24%	u	-26%	x	-1%
COc1ccc(OC)c(C2C(C(=O)Nc3nc4ccccc4s3)=C(C)NC3=C2C(=O)CCC3)c1 (centres undefined)	u	u	u	u	u	6%	u	3%
Cc1ccccc1NC(=O)c1ccc2c(O)c(S(=O)(=O)c3ccccc3)c(=O)[nH]c2c1	1%	-1.5%	x	-5%&-22%	19%[46.1 µM]	2%	17%	8%
COc1ccccc1C1=NOC(Cn2c(NCCOCCO)nc3c2c(=O)n(C)c(=O)n3C)C1 (centres undefined)	x	x	x	-19%	x	-10%	-2%	1%
NC(=O)C1CCN(C(=O)c2cccc3ccccc23)CC1	x	x	x	13%	x	5%	-17%	0%
CCN(CC)S(=O)(=O)c1ccc(-c2csc(=Nc3cccc(C(F)(F)F)c3)n2Cc2ccc3c(c2)OCO3)cc1	-11%	-2.6%	u	0%	-9%[46.1 µM]	x	x	x
CCOc1ccccc1C(=S)NC1CCCCC1	x	x	-1%	3%	u	-11%	1%	5%
CCOC(=O)C(=O)NC12CC3CC(CC(C3)C1)C2	-4%	-0.8%	20%&22%	7%	10%&-13%	152%	7%	-24%
Cc1nc2ccsc2c(=O)n1-c1cccc(Cl)c1	x	x	16%	-3%	5%	2%	x	x

Of the compounds above, two have a CF3 group.
SMILES	Cruzain noTriton	Cruzain Triton	MARV entry inh	2A StopGo	Lassa entry inh	RE007 growth inh	NS1 inh	SARS PLP yeast
Cc1nc(-c2cccnc2)sc1C(=O)Nc1cccc(C(F)(F)F)c1	26%	-10%	-10%	-16%	13%	-33%	1%	-14%
CCN(CC)S(=O)(=O)c1ccc(-c2csc(=Nc3cccc(C(F)(F)F)c3)n2Cc2ccc3c(c2)OCO3)cc1	-11%	-2.6%	u	0%	-9%[46.1 µM]	x	x	x

Next section:
SMILES	Cruzain noTriton	Cruzain Triton	MARV entry inh	2A StopGo	Lassa entry inh	RE007 growth inh	NS1 inh	SARS PLP yeast
O=C(Cn1cc(C(F)(F)F)ccc1=O)N1CCN(S(=O)(=O)c2ccc(Cl)cc2)CC1	-12%	1.6%	-15%	-21%	-4%	24%	-2%	1%
COc1ccccc1-c1cc(N)n(S(=O)(=O)c2cccc3nsnc23)n1	x	x	8%[46.1 µM]	-17%	-10%	-2%	3%	2%
Cc1ccc(/C=N/NC(=O)c2sccc2OCc2ccc(F)cc2)cc1	5%	-0.7%	u	19%	u	-6%	3%	-8%
CC(=O)N/N=C(\C)c1ccc(Br)cc1Br	x	x	x	-7%	x	20%	-3%	-3%
CCC(=O)Nc1sc2c(c1C(=O)Nc1ccc(OC)cc1)CCC(C(C)(C)C)C2 (centres undefined)	1%	-1.5%	3%[46.1 µM]	-9%	u	x	x	x
CC1CCc2sc(C(=O)N/N=C/C3CCCCC3)cc2C1 (centres undefined)	8%	-3.1%	16%	7%	-28%	-8%	27%	-26%
CCCCCCCCC(=O)NCCOc1ccccc1	-4%	-8.9%	u	-13%	2%	9%	1%	29%
Cc1cc(Br)ccc1N=C1NC(=O)CS1	x	x	1%[46.1 µM]	-13%	-9%[46.1 µM]	-6%	-13%	-5%
O=C(Nc1ccc(Br)cc1)c1cccc(N2C(=O)CCC2=O)c1	x	x	18%	7%	2%	-9%	2%	1%
O=C(Nc1ccc(N2CCOCC2)c(C(=O)O)c1)c1ccco1	-8%	2.6%	0%	x	x	x	-8%	-10%
COC(=O)c1ccccc1NC(=O)c1cc2sccc2n1C	-19%	-4.5%	17%	-22%	12%	5%	-8%	1%
Cc1cc(=O)n(Cc2ccc(OC(C)C)cc2)c(=S)[nH]1	x	x	u	-24%	u	8%	-11%	0%
Cc1cccc(NC(=O)CSCC(=O)N2CCCc3ccccc32)c1	x	x	0%	-4%	12%	-17%	x	4%
C=CCn1c(SCC(=O)N2CCc3ccccc3C2)nc2sc(C)c(C)c2c1=O	-7%	-3.6%	-1%	-9%	1%	16%	29%	-7%
CC(C)(C)C1=C(C#N)C(c2cccnc2)C(C#N)=C(N)O1 (centres undefined)	-2%	0.0%	u	-22%	13%	-11%	6%	18µM*
O=C(NCC(=O)N(Cc1cccs1)C(C(=O)NC1CCCCC1)c1ccncc1)c1ccco1 (centres undefined)	-10%	-11%	8%	-13%	-9%	-1%	-7%	18%
O=C(Nc1ccccc1)N1CCC(n2c(=O)[nH]c3ccccc32)CC1	3%	1.9%	x	-1%	x	-13%	0%	-1%
CCOc1ccc(CNC(=O)Cn2nc(C)c3nn(-c4ccc(Cl)cc4)c(C)c3c2=O)cc1OC	11%	2.5%	x	-21%	2%[46.1 µM]	x	x	x
COc1ccc(C2C3=C(CC(C)(C)CC3=O)Nc3c2c(=O)n(C)c(=O)n3C)cc1OC (centres undefined)	x	x	4%	-1%	13%	-4%	x	-1%
OCC1CCCN1C(=S)Nc1ccccc1 (centres undefined)	-1%	6.0%	2%	20%	u	7%	11%	0%
CN1/C(=C\C(=O)c2ccco2)c2ccccc2CC1(C)C	10%	4.2%	-19%	x	3%	5%	2%	0%
COc1ccc(C(=O)C(C)[n+]2ccc(-c3nnc4n3CCCCC4)cc2)cc1 (centres undefined)	x	x	u	-10%	13%[46.1 µM]	-15%	2%	-7%
CCCCN(C)C(=O)c1ccc(S(=O)(=O)N2CCOCC2)cc1	-4%	-2.6%	7%[46.1 µM]	-23%	17%	-4%	-2%	2%
CCCCOc1ccc(C(=O)N(Cc2ccccc2)C2CCS(=O)(=O)C2)cc1 (centres undefined)	u	-4.5%	-12%&-12%	-24%&-21%	u	1%	-18%	0%
CCN(CC)CCCNC(=O)C1c2ccccc2Oc2ccccc21	2%	6.7%	0%	-23%	1%	-7%	6%	-2%
Fc1ccccc1Cc1noc(CN2CCN(c3ccc(Cl)cn3)CC2)n1	x	x	u	-27%	u	-16%	-5%	0%
COc1ccc(Nc2nc(=O)c3cc([N+](=O)[O-])ccc3s2)cc1	x	x	x	-7%	x	16%	5%	1%
Cc1cccc(C(=O)Nc2ccccc2C(=O)OCc2cc(=O)n3nc(C4CC4)sc3n2)c1	-7%	1.6%	x	12%	16%[46.1 µM]	x	x	x
Cc1oc(-c2cccc(Cl)c2)nc1CN1CCC(C(=O)N2CCN(c3ccccc3F)CC2)CC1	x	x	x	u	x	6%	-9%	0%

Compound profiles (already shown).
Shown for O=C(Cn1cc(C(F)(F)F)ccc1=O)N1CCN(S(=O)(=O)c2ccc(Cl)cc2)CC1 → Cruzain noTriton: -12%; Cruzain Triton: 1.6%; MARV entry inh: -15%; 2A StopGo: -21%; Lassa entry inh: -4%; RE007 growth inh: 24%; NS1 inh: -2%; SARS PLP yeast: 1%
Shown for OCC1CCCN1C(=S)Nc1ccccc1 (centres undefined) → Cruzain noTriton: -1%; Cruzain Triton: 6.0%; MARV entry inh: 2%; 2A StopGo: 20%; Lassa entry inh: u; RE007 growth inh: 7%; NS1 inh: 11%; SARS PLP yeast: 0%
Shown for CC1CCc2sc(C(=O)N/N=C/C3CCCCC3)cc2C1 (centres undefined) → Cruzain noTriton: 8%; Cruzain Triton: -3.1%; MARV entry inh: 16%; 2A StopGo: 7%; Lassa entry inh: -28%; RE007 growth inh: -8%; NS1 inh: 27%; SARS PLP yeast: -26%
